A1 inh = inhibitors of the anti-apoptotic protein A1, read as caspase activation; MEF A1-2A-BIM cells, Caspase-Glo 3/7 luminescence, 3 h; percent of clofoctol response, vehicle zero; caspase activation, % (test concentration not listed); 330,000 compounds, 0.066% hits; AID 2462;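 active means over half of replicate activation scores above 10%, or exactly half above 10 with the replicate mean above 10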;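 further: wells of about 30 µL received 50 nL stock; many hits fall short of the cut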
AF4-AF9 inh = inhibitors of human MLL-AF4/AF9 interaction; AlphaScreen, biotin-AF4 peptide binding to FLAG-AF9; P42568; 350,000 compounds, 0.47% hits; inhibition, % at 10 µM;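 active means every replicate reaching a set inhibition limit, whatever the replicate mean, cut at about 25% in these data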;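 further: 0% = plate neutral control median and 100% = total signal loss; the record names both 10 and 1 µM as test concentration; the first replicate is given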
Target sequence (P42568 whole entry, looked up): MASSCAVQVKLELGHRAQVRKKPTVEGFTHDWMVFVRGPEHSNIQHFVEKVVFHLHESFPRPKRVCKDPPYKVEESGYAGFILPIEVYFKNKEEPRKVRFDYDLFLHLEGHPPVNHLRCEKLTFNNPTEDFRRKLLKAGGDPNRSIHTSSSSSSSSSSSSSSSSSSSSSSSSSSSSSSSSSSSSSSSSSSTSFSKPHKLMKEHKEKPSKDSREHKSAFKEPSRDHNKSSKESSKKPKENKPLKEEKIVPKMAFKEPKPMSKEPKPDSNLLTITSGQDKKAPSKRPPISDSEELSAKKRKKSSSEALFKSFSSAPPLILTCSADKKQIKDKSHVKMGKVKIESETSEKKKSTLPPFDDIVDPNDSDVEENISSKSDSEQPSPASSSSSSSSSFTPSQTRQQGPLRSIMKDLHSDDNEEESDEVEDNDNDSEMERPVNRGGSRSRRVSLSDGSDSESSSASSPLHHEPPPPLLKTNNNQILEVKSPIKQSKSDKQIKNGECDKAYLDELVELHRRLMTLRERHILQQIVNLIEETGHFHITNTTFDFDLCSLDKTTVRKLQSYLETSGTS
UCH37 DUB inh = blocks the human deubiquitinase UCH37 | Q9Y5K5 | purified proteasome/UCH37, Ub-AMC cleavage fluorescence | inhibition, % (no concentration beside the values) | 330,000 compounds, 0.33% hits | AID 588478;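 active means mean of two replicates above 20%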;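 further: 0% = compound-free wells with enzyme and 100% = wells lacking proteasome; stock transfer was 100 nL into about 20 µL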
Target sequence (Q9Y5K5 whole entry, looked up): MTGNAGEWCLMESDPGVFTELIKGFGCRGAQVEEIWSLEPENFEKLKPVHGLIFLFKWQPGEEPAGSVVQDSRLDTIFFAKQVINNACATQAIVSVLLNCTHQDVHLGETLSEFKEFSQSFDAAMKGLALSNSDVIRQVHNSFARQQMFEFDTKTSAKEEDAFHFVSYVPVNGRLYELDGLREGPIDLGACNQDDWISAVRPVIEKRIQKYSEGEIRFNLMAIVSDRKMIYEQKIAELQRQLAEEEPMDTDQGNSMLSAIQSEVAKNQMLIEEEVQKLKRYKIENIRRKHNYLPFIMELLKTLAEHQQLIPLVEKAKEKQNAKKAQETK
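System: Proteasome-associated human UCH37 deubiquitinase; Input: 0.15 nM proteasome in added enzyme buffer; Also added: Ub-AMC substrate from 1 µM stock; Incubation: 30 min compound-proteasome preincubation then 25 min substrate reaction, room temperature; Detection: fluorescence, ex 355 nm, em 460 nm; Read-out: % inhibition of Ub-AMC cleavage fluorescence; Benchmarks: no-proteasome and no-compound wells.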
Beta cell apopt = blocks beta cell apoptosis; 300,000 compounds, 0.8% hits; INS-1E cytokine-induced death, ATP luminescence, 48 h; percent of positive-control rescue, neutral wells zero; AID 435005; protection from apoptosis, % (concentration not given with the values);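 active means all replicates at 75% or more, or half of them and the mean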;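 further: 0% = cytokine-treated negative control wells and 100% = positive control rescue; higher means more ATP so stronger rescue from cytokine killing; wells of about 40 µL received 100 nL stock; the first replicate is given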
Ecoli rRNA inh = inhibits bacterial ribosomal RNA function over humanized ribosomes | E. coli WT GFP vs humanized-ribosome RFP mutants, fluorescence, 24 h; active compounds read low; DMSO median 0, no signal -100 | GFP signal change (wild-type ribosome), % (test concentration not listed) | 350,000 compounds, 1.6% hits;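 active means significant combined selectivity score with lowered wild-type GFP, culture density cut under 30%, mutant RFP and density less affected; inactive means any of these conditions unmet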; further: one replicate is shown; some compounds called inactive have numbers as strong as hits
T cruzi inh = blocks replication of Trypanosoma cruzi. 300,000 compounds, 1.4% hits. inhibition, % (no concentration beside the values). AID 1885. T. cruzi beta-gal in NIH3T3, luminescence, 90 h;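 active means mean inhibition across valid replicates above about 55%, limit read from the data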;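 further: signal also drops with host cell toxicity which is not excluded here; 0% = plate median of DMSO wells and 100% = zero luminescence signal; higher percent means less beta-gal luminescence so fewer parasites; stock transfer was 50 nL into about 50 µL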
FGF22 binding = FGF22 (human) thermal shift binding; Q9HCT0; recombinant FGF22 thermal shift, SYPRO orange fluorescence; percent of sucrose octasulfate shift, DMSO zero; calls only at 9.99 µM; 340,000 compounds, 1.5% hits; AID 651658;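 active means melting point raised past a set limit in the mean and every replicate; three in four hits are not shown here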
Target sequence (Q9HCT0 whole entry, looked up): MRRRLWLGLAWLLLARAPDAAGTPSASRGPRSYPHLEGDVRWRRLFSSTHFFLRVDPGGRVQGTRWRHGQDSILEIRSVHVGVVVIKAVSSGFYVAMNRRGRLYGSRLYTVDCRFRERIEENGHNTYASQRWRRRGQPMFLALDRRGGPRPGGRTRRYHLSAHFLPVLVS
E coli growth = E. coli growth inhibition. Escherichia coli growth, OD600, 23 h; active compounds read low. OD600 absorbance (no concentration beside the values). 330,000 compounds, 0.21% hits. AID 1053175;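 active means OD600 absorbance below the run mean of sample wells minus 3.6 SD, in any replicate, cut at about 0.56 in these data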;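 further: stock transfer was 300 nL into about 60 µL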
Ecoli rRNA inh OD600 = second read-out of Ecoli rRNA inh, no call of its own (marks repeat the call); OD600 change, %; measured here: OD600 growth;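 optical density of the mix in the first replicate; 0 = DMSO median and -100 = no signal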
Ecoli rRNA inh RFP = second read-out of Ecoli rRNA inh, no call of its own (marks repeat the call); RFP signal change, %; measured here: RFP humanized mutant strains;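 first replicate; 0 = DMSO median and -100 = no signal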
* = called active by the depositor; i = inactive; / = no result given. The list is partial. The share of hits here may be higher or lower than overall.

SMILES,A1 inh,AF4-AF9 inh,UCH37 DUB inh,Beta cell apopt,Ecoli rRNA inh,Ecoli rRNA inh OD600,Ecoli rRNA inh RFP,T cruzi inh,FGF22 binding,E coli growth
O=C(Nc1ccc(Oc2ccccc2)cc1)C1CCCO1 (centres undefined),-0.6,/,3.9,/,/,/,/,-6.4,/,0.705
Cn1c(NC(=O)CCC2CCCCC2)cc(=O)n(C)c1=O,-0.6,3.0,7.6,-7.9,-15.9,-24.8,-0.3,1.8,i,0.719
CC(C)c1nnc(NC(=O)c2c(O)c3cccc4c3n(c2=O)CCC4)s1,0.6,/,-2.2,21.6,/,/,/,-1.3,/,0.678
COc1ccccc1C(=O)N1CCN(CCNC(=O)C(=O)Nc2ccc(Br)c(C)c2)CC1,-0.1,-1.7,1.2,3.1,-0.5,3.8,3.8,-7.8,/,0.689
COc1cccc(N2CCN(S(=O)(=O)c3c(C)[nH]c(C)c3C(=O)N3CCCCC3)CC2)c1,0.7,6.7,4.2,-4.9,5.5,8.1,-3.5,7.0,i,0.648
O=C(CSCCNS(=O)(=O)c1ccccc1)Nc1ccccc1,0.1,/,1.0,-6.9,/,/,/,-1.2,/,0.727
COc1ccc(CNC(=O)Cn2ccc([N+](=O)[O-])n2)cc1OC,0.4,0.8,0.3,0.6,-7.6,4.5,-1.1,8.2,i,0.634
Cc1noc(NS(=O)(=O)c2ccc(NC(=O)CSc3n[nH]c(-c4ccccc4)n3)cc2)c1C,-1.3,/,1.7,-1.9,/,/,/,-6.6,/,0.741
COc1ccccc1/C=C(/C(=O)OCC(=O)Nc1ccccc1C)c1ccccc1,0.5,2.8,1.4,-7.9,-21.6*,-16.9*,-0.4*,-14.5,i,0.702
CCOC(=O)C(CC)Sc1ccc2nnc(-c3cccnc3)n2n1 (centres undefined),-0.4,1.0,2.8,-5.1,-3.0,-5.8,-5.0,8.5,i,0.717
CCC(=O)n1nc(NCc2ccc(OC)c(OC)c2)nc1NCc1ccc(OC)c(OC)c1,-0.2,/,-0.2,-1.8,/,/,/,-7.5,/,0.72
Nc1n[nH]c(S(=O)(=O)CCCc2ccccc2)n1,0.1,/,0.7,-10.6,/,/,/,-8.5,/,0.741
COc1ccc(CCNC(=O)CC2Nc3cc(C)c(C)cc3NC2=O)cc1OC (centres undefined),-0.9,/,-26.6,/,/,/,/,-7.3,/,0.714
CS(=O)(=O)N1CCc2cc(-c3csc(NC(=O)Cc4cccs4)n3)ccc21,-0.3,/,0.1,19.7,/,/,/,60.3*,/,0.71
O=S(=O)(c1ccc(N2CCCC2)nc1)N1CCOCC1,-0.4,/,2.0,-4.2,/,/,/,0.6,/,0.777
CCOc1ccc(CNn2cnnc2)cc1,1.5,-4.0,/,-5.7,-4.3,-0.5,-4.5,-5.7,i,/
COc1ccc(S(=O)(=O)N2CCC(C(=O)NCC3CCCO3)CC2)cc1OC (centres undefined),-0.5,-1.5,2.1,0.9,9.6,10.2,2.8,-1.2,i,0.655
O=C(NCCNC(=O)c1cccc(O)c1)c1cccc(O)c1,0.6,1.0,-0.3,-5.7,-18.5,-26.3,-0.5,-6.4,i,0.688
COc1ccc(C(=O)/C=C/Nc2ccc(S(=O)(=O)Nc3cc(OC)nc(OC)n3)cc2)c(OC)c1,-0.1,3.4,-14.2,-2.5,6.0,7.1,-0.9,-3.2,i,0.61
COc1ccc(C2CC(C(F)(F)F)n3ncc(C(=O)NCc4cccnc4)c3N2)cc1OC (centres undefined),-0.8,/,1.2,-1.7,/,/,/,-8.9,/,0.766
Fc1ccccc1Cc1noc(CN2CCN(C/C=C/c3ccccc3)CC2)n1,0.5,4.1,3.0,8.0,-2.7,-20.8,3.7,66.8*,i,0.68
CN(Cc1ccc(OC(F)F)cc1)C(=O)C1CCN(S(=O)(=O)c2ccc3c(c2)OCCO3)CC1,-0.8,1.4,0.7,-2.1,-0.5,-10.1,5.6,/,i,0.664
O=C1S/C(=C/c2ccccc2F)C(=O)N1CCN=C1NS(=O)(=O)c2ccccc21,0.5,/,4.2,0.5,/,/,/,7.5,/,0.724
O=C(c1ccc(-c2cccc(Cl)c2)o1)N1CCN(c2ccc([N+](=O)[O-])cc2)CC1,-0.5,/,5.6,-2.1,/,/,/,17.2,/,0.677
Cc1cccc(-n2c(C)c(-c3ccccc3)[nH]c2=S)c1,0.1,-2.7,1.8,2.1,-6.2,-10.6,-0.6,9.2,i,0.653
Cc1csc(NC(C)c2nc3cc(Cl)c(Cl)cc3n2CCCO)n1 (centres undefined),-0.2,-9.7,2.1,-2.0,0.4,9.7,3.0,-5.9,i,/
CCNC(=S)NNC(=O)c1ccncc1,-0.1,-1.3,5.2,1.7,22.4,18.2,2.8,-16.8,i,0.681
Cc1cccc(C)c1NC(=O)CN(C)C(=O)c1cccc(S(=O)(=O)N2CCN(C)CC2)c1,0.2,-0.6,1.9,/,10.5,8.4,3.4,-5.6,i,0.641
COc1cc(C(=O)N2CCN(c3cccc(C(F)(F)F)c3)CC2)ccc1OCC(=O)N1CCOCC1,/,-18.9,-1.6,/,-4.4,-2.6,-0.7,/,i,0.712
CCc1cc(=O)oc2cc(OCC(=O)OC)c(Cl)cc12,-1.2,/,-34.1,1.0,/,/,/,5.8,/,0.671
Cn1c(COc2ccccc2)nnc1SCc1nc2ccccc2[nH]1,0.5,-55.7,-3.8,-3.9,-12.7,-6.4,1.2,-24.8,i,0.641
Cc1cc(C(=O)OCC(=O)NC2CC2)ccc1[N+](=O)[O-],-0.7,2.8,2.6,0.9,2.6,15.6,-2.0,/,i,0.649
CCc1[nH]nc2c1C(c1ccc(C)o1)C(C#N)=C(N)O2 (centres undefined),0.5,0.4,5.7,-9.9,0.9,0.6,6.3,-14.9,i,0.682
CCOc1ccc(NC(=O)Nc2ccccc2SC)cc1,-9.8,-2.6,/,15.1,10.6,7.8,-6.5,-10.9,i,/
Cc1cc(C)c(NC(=O)CSc2nc(=O)n(CCN3CCOCC3)c3c2CCC3)c(C)c1,-0.9,12.5,0.5,/,10.6,17.9,1.1,-6.7,i,0.703
CC(C)(C)OCC(NC(=O)C(CC(N)=O)NC(=O)OC(C)(C)C)C(=O)OC(C)(C)C (centres undefined),0.5,/,-1.2,-0.5,/,/,/,-1.8,/,0.616
O=C(COc1coc(CN2CCN(c3ccccc3)CC2)cc1=O)NC1CCCC1,1.1,-2.2,2.1,/,-0.7,7.2,-3.2,9.9,i,0.693
CCN(C(=O)c1cc(Cl)ccc1OC)C1CCCCC1,-1.0,/,6.5,-2.8,/,/,/,14.5,/,0.67
Cc1cc(C)c2c(c1)c1nnc(SCCN3CCCCC3)nc1n2C,/,-3.2,7.6,/,-14.1,-1.5,-0.5,29.6,i,0.652
CCOC(=O)CN1C(=O)C(O)=C(C(C)=O)C1c1ccccc1 (centres undefined),-0.2,/,4.9,-4.7,/,/,/,-16.6,/,0.705
Cc1ccnc2nc(C(=O)OCC(=O)N3CC(C)CC(C)C3)nn12 (centres undefined),/,-4.8,0.2,/,7.8,4.4,-1.5,/,i,0.652
COc1ccc(Cl)cc1NC(=S)NCCc1c[nH]c2ccccc12,0.5,/,3.7,-5.3,/,/,/,51.3,/,0.673
O=C(CNC(=O)c1ccc(F)cc1)NCc1ccc(S(=O)(=O)N2CCOCC2)cc1,/,-0.5,2.8,/,-13.2,-9.6,-3.7,/,i,0.695
CC(C)Sc1nnc(NC(=O)CCc2ccccc2)s1,-0.3,2.1,0.8,-1.7,5.5,0.7,1.0,11.1,i,0.721
CC(NC(=O)C1CCCC1)C1CC2CCC1C2 (centres undefined),-0.6,4.6,-23.1,2.9,-0.5,5.1,-1.4,-5.0,i,0.694
COc1cc(S(=O)(=O)N2CCN(c3ccc(F)cc3)CC2)ccc1Cl,0.1,/,2.6,-5.2,/,/,/,5.9,/,0.71
Nn1cnnc1SCC(=O)N(C1CCCCC1)C1CCCCC1,-0.1,-22.1,2.3,-12.7,-8.6,-22.2,-3.5,6.4,i,0.658
O=C(Nc1nccs1)Oc1ccccc1,-0.6,/,3.3,-2.2,/,/,/,-8.2,/,0.729
O=C(N/N=C/c1cc2c(c([N+](=O)[O-])c1)OCO2)c1ccncc1,1.4,0.0,/,-8.1,7.5,15.1,4.3,-0.8,i,/
COc1ccc(NC(=O)CS(=O)CC(=O)NC2CCCc3ccccc32)cc1 (centres undefined),0.6,/,0.3,-6.0,/,/,/,-6.8,/,0.676
COc1ccc(NC(=O)c2nnn(CC(=O)Nc3ccc4c(c3)OCO4)c2N)cc1OC,0.4,-4.1,-3.3,-4.7,1.2,10.7,-5.1,-4.1,i,0.654
COc1ccc(NC(=O)NC23CC4(C)CC(C)(CC(C)(C4)C2)C3)cc1OC,0.0,-0.8,0.7,2.7,6.2,8.8,1.2,41.1,i,0.689
CC1CCCCN1C(=O)CNCC1CCCO1 (centres undefined),0.7,-1.7,0.7,-0.8,15.2,17.5,2.4,-10.9,i,0.705
CCn1cnc2sc(C(=O)Nc3ccc4c(c3)OCO4)c(C)c2c1=O,0.1,/,-5.9,9.3,/,/,/,-4.0,/,0.711
O=C(Nc1ccncc1)c1ccc(Cl)c([N+](=O)[O-])c1,-0.5,2.3,4.4,-1.8,14.1,12.3,-1.2,19.1,i,0.653
CCN(CC)S(=O)(=O)c1ccc(N/N=C/c2cccnc2)nc1,-0.1,-0.5,/,-3.2,6.7,-1.6,-2.6,2.7,i,/
Oc1ccc(/C=N/n2c(C3CCCCC3)n[nH]c2=S)c(O)c1,1.2,-4.7,/,-9.7,9.4,4.3,3.1,-4.1,i,/
Cc1cccc(-n2ncc3c(NCc4ccccc4)ncnc32)c1,-0.4,7.4,7.4,27.6,-13.9,-10.4,0.5,-28.2,i,0.739
Cn1ccnc1SCC(=O)Nc1ccc2c(c1)OCO2,-0.1,-1.0,0.4,-7.8,8.5,3.3,-2.6,7.4,i,0.672
CC(=O)c1cccc(NS(=O)(=O)c2c(C)noc2C)c1,0.5,/,1.3,-6.0,/,/,/,-8.7,/,0.755

(more compounds)
SMILES,A1 inh,AF4-AF9 inh,UCH37 DUB inh,Beta cell apopt,Ecoli rRNA inh,Ecoli rRNA inh OD600,Ecoli rRNA inh RFP,T cruzi inh,FGF22 binding,E coli growth
COc1ccc(S(=O)(=O)N2CCOCC2)cc1C(C)C,-0.7,/,4.9,-2.6,/,/,/,1.3,/,0.667
CC(=O)c1ccc(NC(=O)c2cc(CC(C)C)on2)cc1,-0.4,-4.7,2.6,0.0,3.0,11.4,-2.9,-11.8,i,0.728
CCS(=O)(=O)c1nc(S(=O)(=O)c2ccc(C)cc2)c(N2CCCC(C)C2)s1 (centres undefined),1.0,3.1,6.6,-0.8,-16.9,-33.7,-1.7,0.1,i,0.685
C=CCNC(=O)CN1C2CCCC1CC(NC(=O)c1ccccc1C)C2 (centres undefined),0.2,/,-0.5,-6.6,/,/,/,2.3,/,0.715
